T cruzi inh: inhibitors of intracellular T. cruzi growth, primary screen, luminescence, NIH3T3 host cells. T. cruzi beta-gal in NIH3T3, 90 h. inhibition, % (test concentration not listed). 1.4% of 300,000 active;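 active = mean inhibition across valid replicates above about 55%, limit read from the data; inconclusive = mean below that limit but half or more replicates reach it; inactive = mean below it, under half of replicates reach it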;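 note: signal also drops with host cell toxicity which is not excluded here; 0% = plate median of DMSO wells and 100% = zero luminescence signal; higher percent means less beta-gal luminescence so fewer parasites; stock transfer was 50 nL into about 50 µL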
RanGTP-Imp inh: inhibitors of RanGTP-importin-beta interaction, primary screen, biochemical, FRET, CFP-Ran, YFP-importin-beta, homogeneous | AID 2216, 2009 | 1.1% of 300,000 active | inhibition, % (concentration not given with the values) | cell-free CFP-Ran/YFP-importin-beta FRET ratio;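 active = most replicates above 15%; inconclusive = exactly half above 15%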;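 note: 0% = DMSO wells and 100% = Ran loaded with GDP instead of GTP; wells of about 40 µL received 100 nL stock; the first replicate is given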
Calb FLC: C. albicans growth inhibition with fluconazole, primary screen, CaCi-2 strain, Alamar Blue fluorescence; C. albicans CaCi-2 (fluconazole-resistant clinical isolate) + fluconazole, 48 h; growth inhibition, % (no concentration beside the values); 0.57% of 300,000 active;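 active = most replicates above 75%; inconclusive = exactly half above 75%; inactive = most below 75%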;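 note: all wells also contain fluconazole at 8 µg/ml as a sub-toxic cotreatment; 0% = median of DMSO wells and 100% = median of geldanamycin control wells; wells of about 8 µL received 7.5 nL stock; the first replicate is given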
AF4-AF9 inh: inhibitors of AF4 peptide binding to AF9, primary screen, biochemical, AlphaScreen, biotin-AF4 peptide, FLAG-AF9, single point; Protein AF-9 (Homo sapiens), P42568; inhibition, % at 10 µM; 0.47% of 350,000 active; AID 651704, 2012;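 active = every replicate reaching a set inhibition limit, whatever the replicate mean, cut at about 25% in these data; inconclusive = mean inhibition reaches that limit but some replicates miss it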;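 note: 0% = plate neutral control median and 100% = total signal loss; the record names both 10 and 1 µM as test concentration; the first replicate is given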
Target sequence (P42568 whole entry, looked up): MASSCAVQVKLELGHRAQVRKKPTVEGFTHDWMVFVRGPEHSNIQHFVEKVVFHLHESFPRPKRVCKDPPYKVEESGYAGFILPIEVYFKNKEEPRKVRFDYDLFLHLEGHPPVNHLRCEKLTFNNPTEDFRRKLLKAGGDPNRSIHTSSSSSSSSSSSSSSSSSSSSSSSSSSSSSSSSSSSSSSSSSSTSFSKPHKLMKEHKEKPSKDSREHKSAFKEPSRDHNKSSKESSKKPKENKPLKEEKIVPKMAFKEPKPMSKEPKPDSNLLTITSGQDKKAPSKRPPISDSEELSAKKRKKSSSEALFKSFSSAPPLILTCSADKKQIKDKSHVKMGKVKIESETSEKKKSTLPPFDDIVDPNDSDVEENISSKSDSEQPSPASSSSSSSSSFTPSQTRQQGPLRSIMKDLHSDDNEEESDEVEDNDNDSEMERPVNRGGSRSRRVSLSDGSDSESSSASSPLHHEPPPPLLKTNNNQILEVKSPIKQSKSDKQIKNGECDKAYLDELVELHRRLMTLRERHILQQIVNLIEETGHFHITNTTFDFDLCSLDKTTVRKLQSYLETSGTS
A1 inh: caspase 3/7 activation in MEF A1-2A-BIM cells, primary screen, A1 inhibitor project, cell-based, luminescence, HTS. Caspase-Glo 3/7 luminescence, 3 h; percent of clofoctol response, vehicle zero. caspase activation, % (test concentration not listed). 0.066% of 330,000 active. AID 2462, 2010;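 active = over half of replicate activation scores above 10%, or exactly half above 10 with the replicate mean above 10; inconclusive = replicate mean below 10 yet half the replicates above 10; inactive = over half of replicates below 10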;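 note: wells of about 30 µL received 50 nL stock; many hits fall short of the cut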
LANA-H2A inh: blockers of LANA interaction with H2A/H2B – biochemical, FP readout, HTS, primary screen; cell-free LANA-H2A/H2B peptide, fluorescence polarization; 0.6% of 320,000 active; inhibition, % (test concentration not listed); AID 2629, 2010; Protein LANA1 (Human herpesvirus 8 type P (isolate GK18)), Q9QR71; in the data active = inhibition mostly above about 10%, no sharp cut-off; inactive = mostly below about 6.7%;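 note: stock transfer was 7.5 nL into about 10 µL; 0% = median of vehicle wells and 100% = median of positive control wells; one replicate is shown; the record names a cut of 25% in any replicate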
Vif TR-FRET: inhibitors of Vif binding to APOBEC3G peptide, primary screen, biochemical, TR-FRET, GST-Vif 1-94, biotin-A3G peptide, dose response retest (AID 1117319); TR-FRET GST-Vif / biotin-A3G peptide binding; higher % means a stronger effect; test concentration not given here; strong numbers were not always called active; one-dose inhibition, %; IC50 in µM for titrated hits; Virion infectivity factor (Human immunodeficiency virus type 1 group M subtype B (isolate …; 0.57% of 260,000 active;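 active = above the screen mean plus three standard deviations and confirmed in dose response; inconclusive = results disagree or hit not tested in dose response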;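 note: Vif residues 1-94 fused to GST binding biotinylated APOBEC3G peptide 110-148; 0% = full assay without inhibitor and 100% = GST in place of GST-Vif; retest series ran down from 100 µM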
Beta cell apopt: inhibitors of cytokine-induced beta cell apoptosis, primary screen, luminescence; AID 435005, 2010; 0.8% of 300,000 active; protection from apoptosis, % (test concentration not listed); INS-1E cytokine-induced death, ATP luminescence, 48 h; percent of positive-control rescue, neutral wells zero;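 active = all replicates at 75% or more, or half of them and the mean; inconclusive = half reach 75% but not the mean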;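 note: 0% = cytokine-treated negative control wells and 100% = positive control rescue; higher means more ATP so stronger rescue from cytokine killing; wells of about 40 µL received 100 nL stock; the first replicate is given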
An asterisk follows results filed as active; ? = inconclusive; · = no result given; & = joins results of further samples.

Value order – A1 inh, AF4-AF9 inh, LANA-H2A inh, Calb FLC, Beta cell apopt, RanGTP-Imp inh, Vif TR-FRET, T cruzi inh
- CCOC(=O)c1ccc(N2C(=O)Cc3ccccc3C2=O)cc1
  -0.6, 1.2, 0.0, -7, 0, -0.2, ·, 2
- Cc1ccc(C(O)Cn2nc(C)cc2C)cc1 (stereo not drawn)
  0.8, -8.3, 3.0, -6, 5, 7.7, ·, -8
- O=C(NCc1ccc2c(c1)OCO2)c1ccc(Cl)s1
  -0.9, -0.3, 7.8, -30, 0, 1.8, -2%, -19
- Cc1ccc(S(=O)(=O)N2CCCCC2C)cc1[N+](=O)[O-] (stereo not drawn)
  -1.1, 2.4, -0.5, -14, 3, 0.5, 0%, -2
- Cc1ccccc1N(C(=O)Cc1cccs1)C(C(=O)NCC1CCCO1)c1cccnc1 (stereo not drawn)
  0.0, ·, -1.4, -2, -1, -3.2, ?, -4
- CS(=O)(=O)N(CC(=O)Nc1ccccc1C(=O)N1CCOCC1)c1cccc([N+](=O)[O-])c1
  0.2, -2.3, -2.3, 3, 1, -4.0, -3%, -19
- CC(C(=O)N(C)C1CCS(=O)(=O)C1)N1C(=O)/C(=C/c2ccc(F)cc2)SC1=S (stereo not drawn)
  -1.7, -0.5, -2.0, -3, -11, 3.6, ·, -18
- O=C(Cc1c(F)cccc1Cl)N1CCCC1
  -0.1, -38, -0.9, 4, -3, -0.5, -8%, -1
- O=C(Cc1ccc(F)cc1)OCC(=O)N1CCN(S(=O)(=O)c2ccc(Cl)cc2)CC1
  -0.4, -30, -7.0, 21, 1, 5.1, -9%, -4
- CC1CCCCN1C(=O)C12CCC(C)(/C(=N/O)C1)C2(C)C (stereo not drawn)
  1.9, ·, -0.3, -8, 1, -0.3, 21%, 5
- CN1C[N+]([O-])=C(c2ccccc2)C1(C)C
  0.8, ·, -3.1, 10, -4, 2.0, -3%, -5
- O=C(Nc1ccccc1Cl)Nc1ccnn1C1CCN(C(=O)c2cscn2)CC1
  1.0, 1.4, -1.7, 6, -7, 3.8, 6%, -8
- CC(C)(C)c1nnc(NC(=O)C2CC(=O)N(CCc3ccc(F)cc3)C2)s1 (stereo not drawn)
  0.3, -0.7, -2.5, 2, -5, -4.3, ·, 4
- CCCNC(=O)CSc1nc(Cc2ccccc2)nc2ccccc12
  -0.6, -0.5, 7.6, 8, -1, -7.0, 3%, 1
- CC(=O)OC[C@H]1O[C@@H](O[C@H]2C[C@]3(C)C(C[C@@H](O)C4C([C@]5(C)CC[C@@H](C(C)(C)O)O5)CC[C@]43C)[C@@]3(C)CC[C@H](O)C(C)(C)C23)[C@H](O[C@@H]2O[C@@H](C)[C@H](O)[C@@H](O)[C@H]2O)[C@@H](O)[C@@H]1O (stereo partly drawn)
  -0.9, -1.8, -0.8, ·, 1, ·, ·, ·
- CCOc1ccc(N2C(=O)CNC2=S)cc1
  0.3, -2.7, 1.7, -16, 2, 0.9, ?, -28
- O=C(O)c1ccc(NC(=S)NC(=O)c2ccc(-c3ccc(Br)cc3)o2)cc1
  1.0, -0.9, 1.0, -8, -2, 4.1, ·, 1
- Cc1cc(Nc2ccc([N+](=O)[O-])cc2)nc2ccccc12
  0.3, 0.0, 3.3, 2, 6, -5.0, ·, 28
- COc1ccc2c(c1)c(C(=O)N/N=C/c1ccc(OC)c(OC)c1)c(C)n2C
  -0.4, ·, ·, ?, -5, -0.7, ·, 21
- CCC(C)(C)C1CCC(=NNC(=S)Nc2ccccc2)CC1 (stereo not drawn)
  0.3, 5.7, -151, -10, 1, -2.7, 28%, 1
- CC(=O)OCCN(CCOC(C)=O)c1c(C)[nH]c(=O)[nH]c1=O
  1.1, ·, -1.3, 5, -1, -7.6, -10%, -10
- CCOC(=O)c1cnn(-c2nc(-c3ccccc3)nc3c2COC(C)(C)C3)c1N
  0.8, ·, 0.6, 8, 1, -1.8, 2%, 9
- CCOC(=O)N1CCC(NC(=O)c2cc(C(=O)Nc3ccc(OCC)cc3)ccc2CO)CC1
  -0.1, ·, 0.6, -3, 0, 0.4, 4%, -6
- COC(=O)CSc1nnc(-c2ccc(S(=O)(=O)NCc3ccccc3Cl)cc2)o1
  0.3, ·, -2.0, 0, ·, -3.3, 12%, -4
- COc1cccc(-c2[nH]nc3c2C(c2ccoc2)C(C#N)=C(N)O3)c1 (stereo not drawn)
  -0.3, ·, 0.0, 32, -4, 11, ?, -7
- CN1CCCC(OC(=O)c2ccc(C(C)(C)C)cc2)C1 (stereo not drawn)
  0.5, 2.7, -1.6, -10, -6, 5.3, ·, 10
- COc1ccc(/C=C2\Sc3ccc(C(=O)NCC4CCCO4)cc3N(C)C2=O)cc1 (stereo not drawn)
  -0.6, -2.1, -7.5, 2, -5, -1.1, ·, 7
- CCCc1ncc(C(O)(c2ccccc2)c2ccccc2)n1C
  -1.0, 2.8, -4.8, -2, -3, -0.8, -6%, -7
- CC(C)C(OC(=O)c1nsc(Cl)c1Cl)C(=O)NCc1ccccc1 (stereo not drawn)
  0.3, -0.3, 3.8, -22, -5, 1.4, ·, -14
- COCC(=O)NCc1nc2ccccc2[nH]1
  -1.0, ·, 1.0, -7, -2, 6.7, 71%, -14
- COc1cc(OC)cc(C(=O)O/N=C(\N)c2ccncc2)c1
  -0.2, -3.8, -2.5, 9, 6, -0.3, 16%, 14
- CCCOC(=O)Nc1cccc(C(C)=O)c1
  0.4, ·, -1.8, -3, -6, -1.1, ·, -11
- COc1ccc(CC(=O)Nc2cc(C)ccn2)cc1OC
  1.4, 0.9, 4.8, -1, -3, 1.8, ·, -7
- CCOc1cc(/C=N/NC(=O)C(=O)N2CCCC2)ccc1O
  -0.2, 1.9, 3.4, -4, -3, -2.2, ·, 1
- Cc1cccc(C(=O)NNC(=O)c2ccccc2C)c1
  0.4, -20, 1.3, -2, -11, -2.9, -1%, -6
- COc1ccc(C2C(C(=O)c3ccco3)=C(O)C(=O)N2c2nnc(C)s2)cc1OC (stereo not drawn)
  -0.2, -1.3, 3.9, -2, -1, -9.4, 0%, -6
- Cc1cc(C)n(CC(O)Cn2cnc3c2c(=O)n(C)c(=O)n3C)n1 (stereo not drawn)
  -0.2, ·, 3.5, -10, 3, 0.4, -9%, -9
- COc1cccc(C(=O)NCC2CCCN(C(=O)c3ccc(C=O)cc3)C2)c1OC (stereo not drawn)
  -0.7, -0.7, -8.1, -7, -1, 9.1, 0%, 6
- CCN(CC)CCN1C(=O)C(=O)/C(=C(/O)c2ccc(F)cc2)C1c1cccnc1 (stereo not drawn)
  -0.1, 1.8, -17, -8, 2, 7.1, ·, -5
- COc1cc(/C=C/C(=O)OCC(=O)NC(=O)NCc2ccco2)ccc1OC(F)F
  -0.1, -2.9, -2.6, ·, 0, ·, 6%, ·
- Cc1ccc(C)c(-n2c(Cc3cccs3)n[nH]c2=S)c1
  -0.2, -5.5, -1.4, 3, -6, 3.3, ·, -15
- OC(CN1CCOCC1)Cn1c2c(c3ccccc31)CCCC2 (stereo not drawn)
  2.0, 3.0, -6.9, 0, -2, -1.4, ·, -5
- CCOC(=O)COc1ccc(CCNC(C)=O)cc1
  -0.2, ·, 3.1, 3, 0, 1.9, 15%, -7
- COCC(=O)Nc1c(C(=O)Nc2ccc3c(c2)OCCO3)oc2ccccc12
  0.3, 5.1, -2.1, 5, 8, -2.2, ·, 2
- CC(C)c1c(C(=O)N/N=C/c2cccs2)nnn1-c1nonc1N
  -0.8, -4.7, -2.9, -2, 8, -0.7, ·, 22
- C[C@H](CO)N1C[C@H](C)[C@@H](CN(C)S(=O)(=O)c2ccc(F)cc2)Oc2ccc(NC(=O)C3CC3)cc2C1=O
  -0.7, 0.4&-10, 4.1, ·, 1, ·, ·, ·
- COC(=O)c1sccc1-n1cccc1C(=O)C(=O)N1CC(C)OC(C)C1 (stereo not drawn)
  -0.5, ·, 1.2, 9, 2, 5.3, 1%, 8
- O=C(CCl)N(c1ccccc1)C1CCCCC1
  1.4, 0.1, -1.3, 24, 107*, ?, 7%, 65*
- CC(C)C(NC(=O)c1ccc2c(c1)OCCO2)c1nc2ccccc2[nH]1 (stereo not drawn)
  1.2, -0.7, 3.9, 2, 2, 5.2, ·, -4
- CC(C)(C)n1nnnc1C(c1ccc(Cl)cc1)N(Cc1cccnc1)Cc1ccco1 (stereo not drawn)
  -0.4, ·, -1.6, 24, -1, 1.9, ·, 39
- Cc1nnc(SCC(=O)Nc2ccc(S(=O)(=O)N3CCCCC3)cc2)s1
  0.1, ·, 2.0, -4, -7, 0.6, 11%, -7
- CC(NC(=O)c1cccnc1)C(=O)N1CCCCC1 (stereo not drawn)
  0.8, ·, -5.3, -1, 2, 1.1, 0%, -10
- CN(C)c1nc(N)c([N+](=O)[O-])c(NCC2CCCO2)n1 (stereo not drawn)
  -1.0, 0.9, -1.0, 3, -10, 2.8, -1%, -23
- Cc1c(N(C)S(=O)(=O)c2cccc(C(=O)NC(C)C)c2)c(=O)n(-c2ccccc2)n1C
  0.0, -1.6, 0.1, 5, 5, -1.0, ·, -8
- CCn1c(O)c(C=Nc2ccccc2)n(-c2ccccc2)c1=S
  1.0, ·, -1.2, 0, 0, 7.9, -2%, 12
- OCCc1c[nH]c2ccc(OCc3ccccc3)cc12
  0.1, 10, 0.0, 17, -1, -0.6, ·, -7
- CNS(=O)(=O)c1cc(NC(C)=O)c(C)cc1C
  0.6, -6.2, 1.1, 5, -11, -1.7, 7%, -8
- O=C(NCc1ccccc1)c1onc(CSc2ccccc2)c1C(=O)NCc1ccccc1
  -0.7, 1.5, -2.2, -12, 6, -7.2, ·, 37
- CCCOc1ccc(C(=O)CCC(=O)OCC(=O)N2CC(=O)Nc3ccccc32)cc1
  -0.8, ·, 0.1, 5, 0, 7.5, 5%, 8
- COc1ccc(/C=N/NC(=O)CN2CCN(Cc3ccccc3)CC2)cc1Br
  0.8, ·, -3.0, 0, -2, -2.8, 76%, 5

Later entries
Value order – A1 inh, AF4-AF9 inh, LANA-H2A inh, Calb FLC, Beta cell apopt, RanGTP-Imp inh, Vif TR-FRET, T cruzi inh
- COC(=O)c1cc(COC(=O)CNC(=O)c2ccc(Br)cc2)oc1C
  0.7, 4.3, 3.2, ·, -2, ·, -3%, ·
- Cc1ccc(C(=O)/C=C/c2ccc3c(c2)OCCO3)c(O)c1
  -3.3, 1.9, 1.2, 4, 2, 0.0, ?, -9
- CSc1nc2nc3c(cc2c(=O)n1-c1ccccc1)COC(C)(C)C3
  0.2, -0.7, 3.0, 9, 2, 7.7, 1%, 11
- CCOc1ccc(-n2nnnc2SCC(=O)N2CCOCC2)cc1
  0.5, ·, 5.2, -6, -3, 7.6, -1%, -9
- CCN(c1ccc(OC)cc1)S(=O)(=O)c1nnc(NC(=O)COc2ccc(C)cc2)s1
  -0.3, ·, 9.4, -10, -4, 1.3, ·, 1
